PABP polyA inh: PABP-poly(A) binding inhibition | P11940 | PABP-poly(A) RNA binding, fluorescence polarization | inhibition, % at 35 µM | 290,000 compounds, 1% hits | AID 2014;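 active = 50% or more with normal probe brightness, or confirmed in later tests; inconclusive = above 50% with abnormal brightness, or retests that disagree; inactive = below 50% or failed in later tests; about a fifth of its hits are not listed in these tables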;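 note: calls also rest on retests at 20 µM and on dose response follow-up; controls were probe without protein and protein plus probe with vehicle; some compounds called inactive have numbers as strong as hits; many hits fall short of the cut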
Target sequence (P11940 whole entry, looked up): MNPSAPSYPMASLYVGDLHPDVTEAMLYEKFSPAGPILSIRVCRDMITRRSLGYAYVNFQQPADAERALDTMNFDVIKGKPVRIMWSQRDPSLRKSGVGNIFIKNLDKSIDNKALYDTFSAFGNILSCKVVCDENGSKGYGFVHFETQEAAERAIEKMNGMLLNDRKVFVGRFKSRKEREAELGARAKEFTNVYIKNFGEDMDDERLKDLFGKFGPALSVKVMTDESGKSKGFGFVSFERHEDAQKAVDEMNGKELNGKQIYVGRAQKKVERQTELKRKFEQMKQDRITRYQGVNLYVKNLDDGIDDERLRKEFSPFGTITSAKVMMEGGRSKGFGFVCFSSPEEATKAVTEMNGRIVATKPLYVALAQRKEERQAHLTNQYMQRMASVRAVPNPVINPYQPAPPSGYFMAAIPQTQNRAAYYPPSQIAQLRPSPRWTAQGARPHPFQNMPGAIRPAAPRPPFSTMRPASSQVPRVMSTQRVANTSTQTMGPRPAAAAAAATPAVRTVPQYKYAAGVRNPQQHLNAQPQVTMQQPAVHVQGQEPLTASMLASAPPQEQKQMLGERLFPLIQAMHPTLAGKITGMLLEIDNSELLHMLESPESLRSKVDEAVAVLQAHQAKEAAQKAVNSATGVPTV
Rce1 inhib: blocks yeast Ras-converting enzyme; Q03530; yeast membranes, quenched prenylated peptide cleavage fluorescence; calls only; 290,000 compounds, 0.27% hits;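 active = fall in fluorescence gain of 50% or more versus controls, with final raw signal at or below 3038400; inconclusive = same 50% fall but final raw signal above 3038400; inactive = fall in fluorescence gain under 50%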;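 note: plate controls were neutral control wells for no effect and wells lacking membranes for full effect; tested at 10 µM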
Target sequence (Q03530 whole entry, looked up): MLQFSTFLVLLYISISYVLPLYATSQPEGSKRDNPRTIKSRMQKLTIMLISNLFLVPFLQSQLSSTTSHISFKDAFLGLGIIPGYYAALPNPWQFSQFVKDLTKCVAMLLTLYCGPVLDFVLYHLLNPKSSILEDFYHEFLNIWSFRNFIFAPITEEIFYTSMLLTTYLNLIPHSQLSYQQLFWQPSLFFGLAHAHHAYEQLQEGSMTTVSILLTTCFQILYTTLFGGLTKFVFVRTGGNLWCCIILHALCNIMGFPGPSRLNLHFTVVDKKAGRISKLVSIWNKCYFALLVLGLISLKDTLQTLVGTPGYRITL
CSC inhib: cancer stem cell inhibition | cancer stem cell-like cells viability, luminescence | AID 2717 | inhibition, % at 7.5 µM | 300,000 compounds, 1.1% hits;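 active = mean at 75% or more and at least half the replicates too; inconclusive = mean and replicates disagree; tested in HMLE shEcad cells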;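 note: 0% = median of negative and 100% = median of positive control wells; the first replicate is given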
eIF4H inh: inhibitors of RNA binding by human eIF4H; eIF4H fluorescence polarization binding assay; Q15056; inhibition, % at 35 µM; 290,000 compounds, 0.94% hits;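 active = 50% or more with normal probe brightness, or confirmed in later tests; inconclusive = above 50% with abnormal brightness, or retests that disagree; inactive = below 50% or failed in later tests; about a fifth of its hits are not listed in these tables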;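 note: calls also rest on retests at 20 µM and on dose response follow-up; 0% = protein and probe with vehicle and 100% = probe without protein; strong numbers were not always called active; many hits fall short of the cut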
HIV Env fusion: HIV envelope-mediated fusion inhibition; HeLa-JRFL Env/CEM21 cell fusion, luciferase; inhibition, % at 12.3 µM; 360,000 compounds, 1.1% hits; AID 651610;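 active = mean replicate inhibition score of at least 50 and every replicate individually at or above 50; inconclusive = only one of the two criteria met; inactive = mean below 50 and not all replicates reaching 50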;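 note: 0% = plate neutral controls and 100% = maraviroc near 300 nM; one replicate is shown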
MT1-MMP act inh: MT1-MMP (human) activation inhibition; AID 651647; GFP/RFP ratio change, % at 20 µM; HT1080 RFP-PRO-GFP cells, GFP/RFP ratio fluorescence, overnight; percent of plate control window, DMSO zero; 360,000 compounds, 0.061% hits; P50281;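 active = GFP/RFP ratio change of at least 30% with cell ATP level not reduced by more than half and red fluorescence within 50% of control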; note: strong numbers were not always called active
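Read-out: GFP/RFP fluorescence ratio; Test system: RFP-PRO-GFP reporter HT1080 cells; Compound dosing: single-point 20 µM compound, 1% DMSO; Times: overnight compound exposure at 37 °C.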
Yeast UUG start: modulators of start codon recognition fidelity in yeast | S. cerevisiae UUG-firefly luciferase reporter, luminescence/redox ratio | activity score, % at 18.7 µM | 350,000 compounds, 0.13% hits;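 active = replicate mean at a twofold rise or more, about +100% in these data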;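 note: firefly luciferase made from a UUG start codon reports start codon fidelity; reporter light over untreated wells divided by growth signal over untreated wells; some hits fall short of that in this replicate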
MT1-MMP act inh RFP: recorded beside MT1-MMP act inh, whose call it bears; RFP signal change, %; measured here: RFP expression control read;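 0 = vehicle wells; hits needed this value within 50% of zero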
The depositor's hits bear a star; i = inactive; ? = inconclusive; · = not tested or not shown; & = joins results of further samples; ! = a repeat was not active.

item	molecule	PABP polyA inh	Rce1 inhib	CSC inhib	eIF4H inh	HIV Env fusion	MT1-MMP act inh	MT1-MMP act inh RFP	Yeast UUG start
1	O=C1OCCC1Sc1nnnn1-c1ccccc1 (stereo unspecified)	7	i	·	0	-26	7	10	-15
2	O=C1C2C3C=CC(C3)C2C(=O)N1c1ccc(-c2nc3ccccc3o2)cc1 (stereo unspecified)	7	i	-6	5	·	5	5	·
3	CCCN1Cc2cccc(C(=O)Nc3ccc(OC)c(OC)c3)c2C1=O	·	·	·	·	-12	-1	-3	-10
4	COc1cccc(C=Nc2cc(C)cc(C)c2)c1O	-10	i	-12	-7	7	2	5	-8
5	O=C(CN1CCN(Cc2ccccc2)CC1)Nc1ccc(N2CCOCC2)cc1	27	i	-13	-14	17	2	3	·
6	CSc1nccc(Oc2ccc(C#N)cc2)n1	-9	i	-4	-3	-19	-2	1	·
7	CCCCOCCCNC(=O)N[C@@H](CCSC)C(=O)OC	-3	i	-10	-1	-50	10	5	0
8	O=C(CSc1nc2ccccc2s1)N1c2ccccc2Sc2ccc(Cl)cc21	-7	i	-3	-7	23	0	-4	-8
9	S=c1[nH]nc(-c2ccco2)n1/N=C/c1cccc(Cl)c1Cl	7	i	5	12	-30	2	5	·
10	CC(C)Cn1c(N)c(C(=O)CSc2nc3ccccc3n2C)c(=O)n(C)c1=O	-4	i	1	6	5	1	2	-13
11	CCN1CCN(Cc2ccc(NC(=O)c3ccc(C)c(NC(=O)N4CCNC4=O)c3)cc2C(F)(F)F)CC1	5&-16	i	-5&-7	-3&0	18&46	-4&-4&6	-4&-1&2	131*!
12	COCCNC(=O)c1onc(CSc2cc(C)cc(C)c2)c1C(=O)O	6	i	4	-5	12	2	2	-8
13	COc1cc(/C=N/NC(=O)c2ccc3c(c2)OCCO3)c(Br)c(Br)c1O	·	i	5	·	4	-3	4	-19
14	CC(=O)Oc1ccc(N(C(C)=O)S(=O)(=O)c2ccc(C)cc2C)c2ccccc12	7	i	·	21	-39	12	4	13
15	CCOc1cccc2sc(NC(=O)CC)nc12	-8	i	-31	-1	·	-5	-10	-22
16	COc1ccccc1N1CCN(C(=O)NCc2cccc(C(F)(F)F)c2)CC1	0	i	6	2	-148	2	-1	-15
17	Cc1ccc(S(=O)(=O)CCSc2cccc(C(=O)O)c2)cc1	9	i	-2	5	-2	0	2	3
18	CCOC(=O)N(NC(=O)C(O)(c1ccccc1)c1ccccc1)c1ccccc1	-12	i	-8	-12	-9	5	5	-4
19	Cc1occc1C(=O)NC(C)C(C)(C)C (stereo unspecified)	-5	i	-6	-3	21	2	1	3
20	COc1ccc(Cc2nc(C)cc(Cl)n2)cc1[N+](=O)[O-]	-3	i	-14	5	0	4	4	12
21	O=C(O)c1ccc(N2C(=O)CCCC2=O)cc1	12	i	-4	-7	1	-1	1	-13
22	CCOC(=O)[C@H]1[C@H]2COc3ccccc3[C@@H]2N2C(=O)c3ccc(Cl)cc3NC(=O)[C@@]12C	·	·	-6	·	-17	2	-4	-16
23	CC(OC(=O)c1cccc(S(=O)(=O)N(C)C)c1)C(=O)NCc1ccc2c(c1)OCO2 (stereo unspecified)	·	i	-2	·	2	1	3	·
24	O=C(COC(=O)c1ccccc1NCCO)NNC(=O)c1cccs1	·	i	-7	·	0	0	5	-26
25	CCOC(=O)C1CCN(C(=O)/C=C/c2cccs2)CC1	10	i	·	3	-24	0	1	-10
26	CN(C(=O)c1cccc(NC(=O)Cc2ccc(NC(=O)C3CCN(C(=O)C4CCCC4)CC3)cc2)c1)C1CCCC1	·	·	·	·	-20	-5	-2	6
27	Cc1ccc(CSCC(=O)N/N=C/c2sccc2C)cc1	1	i	·	1	·	6	3	7
28	O=C(CSc1nncn1-c1ccccc1F)NC1CC1	·	·	-11	·	11	0	3	-1
29	CCOC(=O)N1CCN(C(=O)c2cc3ccc(OC)cc3[nH]2)CC1	3	i	-1	6	0	7	5	-2
30	O=C(CNc1n[nH]c(=O)[nH]c1=O)N/N=C/c1cccnc1	-10	i	·	-4	-6	2	10	·
31	CCSc1nnc(NC(=O)c2ccc(Br)s2)s1	-3	i	0	-8	-84	6	1	-11
32	CC(C)=CCn1c2ccc(NC(=O)NCc3ccc(F)cc3)cc2c(=O)n1C	·	·	·	·	10	16	-6	-7
33	CCOC(=O)c1ccc(N=Cc2nc(-c3ccccc3)oc2OC(C)=O)cc1	-2	i	·	0	-3	4	9	-20
34	COc1ncnc2c1ncn2CCCN1CCN(c2ccccn2)CC1	·	·	·	·	1	0	-1	-27
35	CN(C)/C=N/c1nc2nccc(-c3ccccc3)n2n1	2	i	-2	6	0	0	3	-14
36	O=C(Nc1ccc(F)cc1)/C(Cl)=C/c1ccccc1	-16	i	-5	-3	-41	0	1	-16
37	CCN(CC)CCn1c(=S)[nH]c2cc(C(=O)NCc3ccccc3Cl)ccc2c1=O	-2	i	-16	-6	-2	2	-1	-17
38	C[C@H](NC(=O)Cc1cccc2ccccc12)C(=O)NCc1ccccc1	-6	i	-1	15	3	-3	-3	·
39	CCc1ccc2oc(=O)cc(CN3CCC(C)CC3)c2c1	13	i	2	7	-71	-5	-4	-21
40	COC(=O)Cn1c(=NC(=O)C(C)(C)C)sc2c(C)cc(C)cc21	-10	i	·	-2	9	3	-7	-19
41	CCOC(=O)N1CCN(C(=O)c2cnn3ccccc23)CC1	-1	i	3	4	-8	-2	5	-1
42	Cc1cccc(C)c1NC(=O)c1cc(S(=O)(=O)N2CCOCC2)cn1C	-2	i	·	-10	-1	0	1	-11
43	C[C@H](CO)N1C[C@H](C)[C@@H](CN(C)S(=O)(=O)c2ccc(F)cc2)Oc2c(NC(=O)Cc3ccccc3)cccc2C1=O	·	·	·	·	-82	-2	2	6
44	Cc1ccc(NC(=O)C(=O)NCc2ccncc2)cc1	9	i	-6	-1	-10	3	-2	·
45	O=C(Nc1ccccc1)Nc1ccncc1	35	i	0	-4	-11	-1	-2	24
46	CCOC(=O)c1c(C2COc3ccccc3O2)csc1N (stereo unspecified)	4	i	14	-3	-43	1	-2	-9
47	COc1ccc(OC)c(N(CC(=O)Nc2ccc3c(c2)OCO3)S(=O)(=O)c2ccccc2)c1	-9	i	11	-1	-49	-1	-5	0
48	CCN(Cc1ccncc1)C(=S)Nc1ccccc1C	·	·	·	·	31	5	-2	-2
49	CC(C)(C)c1nc(CN2CCOCC2)ccc1O	25	i	-3	-2	-6	-7	-5	-16
50	CC(=O)c1ccc(N2CCN(C(=O)c3ccco3)C(C)C2)c(F)c1 (stereo unspecified)	4	i	0	-3	-25	-1	0	-9
51	Cc1ccc(CN(CC(=O)NC2CCCC2)C(=O)c2csnn2)cc1	4	i	4	-1	-8	·	·	-11
52	CC(C)C[C@H](NC(=O)N1CC(=O)Nc2ccccc21)C(=O)N[C@@H](C(=O)O)c1ccccc1	2	i	-1	-12	4	0	-3	-11
53	O=C(c1ccc(CSc2nc3ccncc3[nH]2)cc1)N1CCN(c2cccc(Cl)c2)CC1	13	i	8	0	?	-4	-28	-13
54	COc1ccc(CC(=O)N2CCC(c3ccccc3)C2)cc1 (stereo unspecified)	-8	i	-7	1	-6	4	1	·
55	C=CCOc1ccc(CNCCc2ccc(S(N)(=O)=O)cc2)cc1	-9	i	12	-8	0	-1	2	·
56	COC(=O)Cc1nnc(NC(=O)c2ccccc2)s1	10	i	-3	3	·	3	5	-14
57	CCOCCOc1nc(C)cc(C)c1S(=O)(=O)c1ccccc1C	-2	·	-21	6	-11	-5	0	·
58	N#CCCn1cc(C(=O)Nc2ccc([N+](=O)[O-])cc2)c(-c2cc3ccccc3o2)n1	-5	i	3	0	3	2	-1	·
59	Cc1ccccc1N(CC(=O)N/N=C/c1ccc(N(C)C)cc1)C(=O)c1ccccc1	-4	i	-12	-2	-3	-5	-2	·
60	Cc1ccccc1-c1nnc(NC(=O)CSc2nc3ccccc3s2)s1	10	i	7	-4	-17	2	2	-13

Remaining list, next part:
item	molecule	PABP polyA inh	Rce1 inhib	CSC inhib	eIF4H inh	HIV Env fusion	MT1-MMP act inh	MT1-MMP act inh RFP	Yeast UUG start
61	Cc1ccccc1-n1c(=O)c2ccccc2n2cnnc12	22	i	-14	11	83*	2	5	-14
62	CCN(CC)C(=O)c1[nH]cnc1C(=O)N[C@@H](CCCCNC(=O)OC(C)(C)C)C(=O)OC(C)(C)C	-4	i	-10	-8	-1	0	2	7
63	CCOc1ccc(C(=O)Nc2cc(=O)n(C)c(=O)n2C)cc1	·	i	-14	·	3	5	6	-3
64	COc1cccc2cc(C(=O)Oc3ccccc3)c(=O)oc12	4	i	-11	-4	7	3	1	0
65	CC(=O)N1CCC2(CC1)CC(=O)c1cc(OCC(=O)N3CCOCC3)ccc1O2	9	i	4	11	5	-2	1	·
66	Cc1cccc(N2CCN(S(=O)(=O)c3cccc4nonc34)CC2C)c1 (stereo unspecified)	33	i	-13	-14	6	1	-6	-4
67	C=CCN(CC=C)C(=O)COC(=O)c1ccc(Sc2ncn[nH]2)c([N+](=O)[O-])c1	0	i	-18	3	-44	1	0	·
68	COc1ccc(C2C(C(=O)NCc3ccccc3)=C(C)Nc3ncnn32)cc1OC (stereo unspecified)	-8	i	6	-2	·	2	1	-19
69	CCOc1ccc(/C=N/NC(=O)Cc2csc(Nc3cccc(C(F)(F)F)c3)n2)c(OCC)c1	4	i	2	4	·	-3	1	-6
70	CCn1nnc(NC(=O)c2sc3ccccc3c2Cl)n1	3	i	·	-8	·	8	3	-27
71	CCN(CC)CCNC(=O)c1cc2c(=O)n(C)c3ccccc3c2n1C	-7	i	1	-7	-28	2	2	-9
72	COC(=O)c1ccc(=O)n(-c2ccc(OC)cc2)c1	-3	i	·	-2	·	1	0	·
73	O=c1c(-c2ccco2)[n+]([O-])c2ccccc2n1OCc1ccccc1[N+](=O)[O-]	0	i	-14	16	3	-1	2	·
74	COC(=O)c1ccc(-n2nnnc2SCC(=O)Nc2ccccc2F)cc1	-7	i	-17	-3	-28	1	0	-21
75	CCn1ncc([N+](=O)[O-])c1C(=O)Nc1ccc(C)c(C)c1	0	i	-1	-2	-7	4	0	-24
76	COc1ccc(NC(=O)CN(C)C(=O)c2ccc(=O)[nH]c2)cc1	-2	i	0	6	-6	-4	-2	-18
77	CCn1cc(CN2CCN(Cc3ccc(OC)c(C)c3C)C(CCO)C2)c(C)n1 (stereo unspecified)	-2	i	17	0	2	-1	-8	-6
78	COc1cc2c(cc1OC)C(C(=O)N1CCCC1)C(c1ccccc1F)N(C)C2=O (stereo unspecified)	14	i	-13	10	-86	1	0	·
79	Cc1cccc(C(=O)Nc2sc(-c3ccccc3)cc2C(=O)O)c1	0	i	39	9	-46	3	-1	-5
80	CCCc1[nH]nc2c1C(c1ccc(OC(=O)c3ccco3)cc1)C(C#N)=C(N)O2 (stereo unspecified)	6	i	-5	4	28	2	5	-14
81	CCCN(CC(=O)Nc1ccc(F)c(F)c1F)C(=O)CCc1nc2ccccc2c(=O)[nH]1	·	i	-1	·	-7	0	-1	-12
82	CN(C)c1ccc(/C=C/C#N)cc1	4	i	11	2	24	-4	-1	7
83	Cn1c(=O)c(C=Nc2ccccc2)c(O)c2ccccc21	-12	i	-10	-3	·	·	·	·

Compound activity from PubChem BioAssay.
